VDR inh = vitamin D3 receptor (human) inhibition; actives 0.93% (n = 400,000); AID 504847; Potency, µM, inactives show max response, negative = inhibition, actives largely listed as inhibitors; VDR-SRC2-3 peptide fluorescence polarization, 2 h; active = well fitted inhibition curve with a large enough effect; inconclusive = small, poorly fitted or top-dose-only effect, or another doubt; inactive = no such curve, though single readings can be large or run the other way; also: series mostly up to about 120 µM
Target sequence (P11473 whole entry, looked up): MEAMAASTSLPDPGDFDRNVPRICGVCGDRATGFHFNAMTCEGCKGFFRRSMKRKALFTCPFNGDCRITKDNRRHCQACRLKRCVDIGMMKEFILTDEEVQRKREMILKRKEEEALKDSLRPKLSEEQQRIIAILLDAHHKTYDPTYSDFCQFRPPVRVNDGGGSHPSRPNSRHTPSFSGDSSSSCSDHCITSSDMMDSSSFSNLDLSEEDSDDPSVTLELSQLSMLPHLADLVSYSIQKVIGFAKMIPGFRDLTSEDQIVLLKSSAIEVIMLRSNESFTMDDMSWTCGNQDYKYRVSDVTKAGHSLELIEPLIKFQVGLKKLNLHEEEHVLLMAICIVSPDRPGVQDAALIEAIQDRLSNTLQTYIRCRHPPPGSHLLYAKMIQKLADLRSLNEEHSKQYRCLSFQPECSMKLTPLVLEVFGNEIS
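Fluorescence polarization assay measuring small-molecule disruption of VDR binding to the coregulator peptide SRC2-3. Compounds were pin-transferred (23 nl) into the reagent mix and incubated 2 h at room temperature before reading.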
Numbers without * were called inactive; ? = inconclusive; & = joins results of further samples; [ ] = another dose, or the depositor's remark. % is scaled to controls: 0 for no effect and ±100 for the full control effect; potency is read from the fitted curve at half-maximal effect. Some of the compounds tested. The share of hits here may be higher or lower than overall.

SMILES	VDR inh
O=C(CCCCn1c(=O)[nH]c2ccccc2c1=O)N1CCN(c2cccc(C(F)(F)F)c2)CC1	-3.3%
CCN(CC(=O)Nc1c(F)cccc1F)C(=O)CSCc1c(C)noc1C	4.0%
CCOC(=O)N1CCc2c(sc(NC(=O)CCS(=O)(=O)c3ccccc3)c2C(N)=O)C1	-12.0%
O=C(c1ccccc1)N1CCN(Cc2ccc3c(c2)OCO3)CC1	-4.5%
COc1cccc(-c2sc3ccc(OC)cc3c2-c2ccc(OCCN3CCCC3)cc2)c1	3.4%
Cc1ccccc1NC(=O)Oc1cccc(OC(=O)c2ccccc2)c1	-17.7%
Cn1c2ccccc2c2ncn(CCCN3CCOCC3)c(=O)c21	0.1%
COc1ccc(N2CCN(C(CNC(C)=O)c3ccc4c(c3)OCO4)CC2)cc1 (centres undefined)	28.0%
COc1ccccc1OCCNC(=O)c1cc([N+](=O)[O-])cc([N+](=O)[O-])c1	-1.2%
Cc1nn(CCC(=O)NCc2ccc(Cl)cc2)c(=O)c2nn(-c3ccccc3)c(C)c12	-1.0%
Cc1nc2sc3c(c2c(=O)[nH]1)CCC3	4.4%
Cc1cccc(N2C(=O)CC(N3CCN(c4ccccc4)CC3)C2=O)c1 (centres undefined)	-10.2%
COC(=O)c1cc(C(=O)c2cc(Cl)ccc2O)coc1=N	-2.0%
CC1(C)Cc2c(C#N)c(NCCc3ccccc3)nc(-c3ccco3)c2CO1	?
Cc1cc(C)c(C#N)c(SCc2ccc(C#N)cc2)n1	0.0%
CC(C)c1ccc(NC(=O)C(c2ccc3c(c2)OCO3)N2CCN(C(=O)c3ccco3)CC2)cc1 (centres undefined)	22.3%
COc1ccc(N2Nc3n[nH]c(N)c3N2)cc1	-9.2%
O=c1cc(-c2ccncc2)oc2c1ccc1ccccc12	10.7%
NCCCC[C@H]1NC(=O)[C@H](CCC(=O)O)NC(=O)c2cc([N+](=O)[O-])cc(I)c2OCC[C@@H](C(N)=O)NC1=O	?
CCOC(=O)O[C@]1(C(=O)COC(=O)CC)CC[C@H]2[C@@H]3CCC4=CC(=O)C=C[C@]4(C)[C@H]3[C@@H](O)C[C@@]21C	0.5%
COc1ccc(CCN2C(=O)c3ccncc3C2=O)cc1OC	16.1%
CC(NC(=O)C1CCN(S(=O)(=O)c2ccccc2)CC1)c1ccccc1 (centres undefined)	135.8%&-7.8%[activator]
O=C(Nc1cc(Cl)ccc1Cl)C1(c2cccs2)CCOCC1	18.4%
COc1ccc(Nc2ccc(C(=O)O)cc2[N+](=O)[O-])cc1	-11.9%
O=C(CNC(=O)c1ccc(Cl)c([N+](=O)[O-])c1)OC1CCCCC1=O (centres undefined)	-5.0%

Among those listed so far, five contain four or more nitrogen atoms:
SMILES	VDR inh
O=C(CCCCn1c(=O)[nH]c2ccccc2c1=O)N1CCN(c2cccc(C(F)(F)F)c2)CC1	-3.3%
Cn1c2ccccc2c2ncn(CCCN3CCOCC3)c(=O)c21	0.1%
Cc1nn(CCC(=O)NCc2ccc(Cl)cc2)c(=O)c2nn(-c3ccccc3)c(C)c12	-1.0%
COc1ccc(N2Nc3n[nH]c(N)c3N2)cc1	-9.2%
NCCCC[C@H]1NC(=O)[C@H](CCC(=O)O)NC(=O)c2cc([N+](=O)[O-])cc(I)c2OCC[C@@H](C(N)=O)NC1=O	?

More entries
SMILES	VDR inh
COc1ccc(C(=O)N(C)C2CCCN(Cc3ccccc3F)C2)cc1OC (centres undefined)	-0.7%
CN1OC[C@@H]2CN(S(=O)(=O)c3ccccc3)[C@H](c3cccc(Br)c3)C[C@@H]21	3.9%
O=C(O)CS(=O)(=O)c1ccc(C(F)(F)F)cn1	-5.1%
CN(C)N(C(=O)c1cc(-c2cccs2)nn1-c1ccccc1)C1CCS(=O)(=O)C1 (centres undefined)	4.2%
Cc1ccc(NC(=O)C2C3C=CC4(O3)C2C(=O)N(CCCN2CCCC2)C4C(=O)NC2CCCCC2)cc1Cl (centres undefined)	-14.3%
CC(C(=O)NCc1ccccc1)N(Cc1ccccc1Cl)C(=O)c1snc(C(N)=O)c1N (centres undefined)	-4.7%
CCc1cccc(C)c1NC(=S)N(CCCN1CCN(C)CC1)Cc1cccs1	-2.2%
COC(=O)C1CCN(C(=O)c2cc3c(=O)n4cccc(C)c4nc3n2Cc2ccccc2)CC1	-7.6%
O=S(=O)(c1ccc(Br)cc1)c1nnn2c1nc(NCc1ccc3c(c1)OCO3)c1sccc12	6.1%
CC[C@H](C)[C@@H]1NC(=O)c2cc([N+](=O)[O-])cc(I)c2NCC[C@@H](C(N)=O)NC(=O)[C@H](CCCN=C(N)N)NC1=O	-24.9%
CCC(CC)C(=O)N1CCc2cc(OC)c(OC)cc2C1COc1ccc(C(=O)OC)cc1 (centres undefined)	-3.6%
CCOc1ccc(NCc2cccn2-c2nnc(N3CCC(C(=O)NCCCN4CCCCC4)CC3)s2)cc1	12.2%
CCCS(=O)(=O)N1CCN(C(=O)CCC2CCCC2)CC1	-9.2%
Cc1cnc(C(=O)OCc2cc(=O)n3c(C)cccc3n2)cn1	2.6%
Cc1ccc(-c2nc(C)c(CCNS(=O)(=O)c3ccc(F)c(C(F)(F)F)c3)s2)cc1	3.1%
Cn1c(Sc2ccc(Cl)cc2)c(C=O)c2ccccc21	14.6%
CCOC(=O)c1cnn(-c2ccccc2)c1-n1cccc1C(=O)C(=O)N(C)C	-3.4%
CCOc1ccc2c(c1)C(=O)c1cc(OCC(=O)O)ccc1-2	3.0%
NC(=O)N/N=C/c1ccc(-c2ccc(S(=O)(=O)Nc3ncccn3)cc2)o1	-9.7%
CN1CCN(c2nc(Nc3ccc(F)cc3)nc(Nc3ccc(F)cc3)n2)CC1	9.2%
CCN(c1ccccc1)S(=O)(=O)c1c(-c2ccc(C)cc2)csc1C(=O)OC	-12.6%
N#CC1=C(N)OC2=C(C(=O)CC(c3ccco3)C2)C1c1ccc(OCc2c(F)cccc2Cl)cc1 (centres undefined)	10.2%
COc1ccc(OC)c(S(=O)(=O)N2CCC(C(=O)NCc3ccccc3)CC2)c1	4.3%
C1CCN(c2nc3nonc3nc2N2CCCC2)C1	24.7%
CC1CCCCC1NC(=O)CCS(=O)(=O)c1cccc2nonc12 (centres undefined)	17.9%
New compounds follow.
SMILES	VDR inh
Cc1ccc(Cn2c(CN3CC(C)OC(C)C3)nc3c2c(=O)n(C)c(=O)n3C)cc1 (centres undefined)	-1.5%
CC(C)(C)C1CCc2sc(C(=O)NNC(=O)CCl)cc2C1 (centres undefined)	-4.3%
CC(C)(CN=C1NS(=O)(=O)c2ccccc21)CNC(=O)c1ccccc1	-11.7%
CCOc1cc(C(=O)NCc2ccc3c(c2)CCN3C(=O)CC)cc(OCC)c1OCC	4.1%
CN(C(=O)c1cccc(Br)c1)C1CCS(=O)(=O)C1 (centres undefined)	2.7%
COc1ccc(COC(=O)c2ccc(Cl)c(S(=O)(=O)N3CC(C)OC(C)C3)c2)cc1 (centres undefined)	-16.2%
Cc1ccc(C(=O)Nc2sc(C)c(C)c2C(=O)c2ccccc2)cc1	44.7µM*
Cc1ccccc1C(=O)N1c2ccccc2OCC1C(C)(C)C (centres undefined)	-11.3%
CCn1c(SCc2nc3ccccc3[nH]2)nnc1-c1cnccn1	-3.9%
CC1(C)C(=O)OC(c2cccn2-c2ccc([N+](=O)[O-])cc2)C(C)(C)C1=O (centres undefined)	-15.7%
Cc1cccc2nc(COc3ccc4ccccc4c3Br)cn12	-14.0%
O=C(/C=C/c1ccccc1)NCc1ccco1	18.5%
CC(=O)c1ccc(-n2c(=O)[nH]c(=O)c3c(N)c(C(=O)c4ccc(Cl)cc4)sc32)cc1	-23.3%
CC(C)C[C@H](NC(=O)N1CCn2c1nc1ccccc12)C(=O)NCCc1ccccc1	5.0%
Cc1ccc(CNC(=O)c2ccc3c(=O)n(CC4CCCO4)c(=S)[nH]c3c2)cc1 (centres undefined)	-1.4%
O=c1cc(CCl)nc2sc3ccccc3n12	16.3%
CC(C)(C)c1ccc(OCCCn2ccnc2)cc1	3.3%
CCOc1ccc(NS(=O)(=O)c2ccc(NC(C)=O)c(OC)c2)cc1	11.3%
O=C(CCc1ccncc1)NC1CCCc2c1cnn2-c1ccc(F)cc1F (centres undefined)	-6.3%
COc1cccc(/C(O)=C2/C(=O)C(=O)N(CCN(C)C)C2c2ccc(Br)cc2)c1 (centres undefined)	-2.5%
COc1ccc(OC)c(S(=O)(=O)Nc2ccccc2SC)c1	2.5%
O=S(=O)(NCC(O)COCc1ccco1)c1cccs1 (centres undefined)	-17.9%
Cc1cc(=O)[nH]c(SCC(=O)N2CCN(C(c3ccccc3)c3ccccc3)CC2)n1	10.1%
Cc1cc(NC(=O)CCC(=O)N(Cc2ccco2)C(C)(C)C(=O)NC2CCCCC2)no1	-1.6%
O=C(COc1ccc(Cl)cc1)Nc1cnn(Cc2c(Cl)cccc2Cl)c1	89.1µM*
The list goes on.
SMILES	VDR inh
COc1ccc(C(=O)Nc2ccccc2N2CCN(C(=O)C(C)C)CC2)cc1Cl	0.8%
CC(C)(C)c1ccc(Cn2nnc3c(=O)[nH]c(C4CCN(C(=O)Cc5cccs5)CC4)nc32)cc1	-5.7%
CC(=O)O[C@@H]1[C@@]2(C)O[C@H]2CC[C@]23O[C@H]2[C@H](OC3=O)C2=C(C)C(=O)O[C@@]21O	-5.4%
COc1ccc(CNC(=O)C(C)OC(=O)CN2C(=O)COc3ccccc32)cc1 (centres undefined)	5.7%
COc1ccccc1NS(=O)(=O)c1cccc(C(=O)NN=C2CCCC2)c1	-5.1%
Cc1ccc(S(=O)(=O)N(C)C)cc1NC(=O)COC(=O)Cc1n[nH]c(=O)c2ccccc12	-18.1%
Cc1ccc(CNS(=O)(=O)CCNC(=O)c2ccccc2)cc1	5.0%
CSc1ccccc1NC(=O)CCS(=O)(=O)c1nc(-c2ccc3c(c2)OCO3)cc(C(F)(F)F)n1	?
O=C(Nc1ccc(Cl)c(C(F)(F)F)c1)c1cc2nc(-c3ccc4c(c3)OCO4)cc(C(F)(F)F)n2n1	-5.2%
CC(NC(=O)C1C(=O)N(CCO)C2(C)CC1c1ccccc1O2)c1ccccc1 (centres undefined)	4.5%
NCCC[C@@H](CC(=O)N[C@@H]1CCCC[C@H]1C(=O)N[C@H](CC(=O)N[C@@H](CCC(=O)O)CC(=O)O)Cc1c[nH]c2ccccc12)NC(=O)C[C@H](Cc1ccccc1)NC(=O)[C@@H]1CCCC[C@H]1N	1.4%
O=C(N/N=C/c1ccc(OC(=O)c2ccccc2Cl)cc1)c1cc(O)cc(O)c1	-21.9%
COc1ccc(/C=C/C(=O)c2cc(F)ccc2OC(=O)c2ccccc2C)cc1OC	?
COc1ccc(S(=O)(=O)Nc2ccccn2)cc1OC	-5.3%
CCOC(=O)c1cc(CC)sc1NC(=O)CN1CCN(C(=O)c2ccco2)CC1	-6.7%
CC(=O)Nc1ccc(S(=O)(=O)N2CCC(NC(=O)c3ccco3)CC2)cc1	-1.0%
Cc1ccc(CN2CCN(/N=C/C(Br)=C\c3ccccc3)CC2)cc1	1.4%
COc1cccc(N2[C@@H](CC(C)=O)c3cc(C(F)(F)F)ccc3S2(=O)=O)c1	3.5%
Cc1ccc(-c2cccc(OC(=O)c3ccccc3F)c2)cc1	-5.2%
CCc1ccc(CNC(=O)CCn2ccc3cc(S(=O)(=O)N4CCCC4)ccc32)cc1	21.0%
S=c1[nH]nc(-c2ccncc2)n1/N=C/C=C/c1ccco1	10.4%
O=C(COc1ccc2ccc(=O)oc2c1)Nc1ccc2c(c1)OCCO2	-8.4%
COc1cc(C(=O)OCc2cc(=O)n3ccsc3n2)ccc1OC(C)C	-8.7%
N/C(=N\c1nc(CSc2ccc(Cl)cc2)cc(=O)[nH]1)Nc1cccc2ccccc12	-1.3%
COc1ccc(Cn2c(=S)[nH]c3ccccc32)cc1	5.9%

Part of the list above in order of heavy-atom count, low to high.
SMILES	VDR inh
COc1ccc(Cn2c(=S)[nH]c3ccccc32)cc1	5.9%
CCc1ccc(CNC(=O)CCn2ccc3cc(S(=O)(=O)N4CCCC4)ccc32)cc1	21.0%
Cc1ccc(S(=O)(=O)N(C)C)cc1NC(=O)COC(=O)Cc1n[nH]c(=O)c2ccccc12	-18.1%
CC(C)(C)c1ccc(Cn2nnc3c(=O)[nH]c(C4CCN(C(=O)Cc5cccs5)CC4)nc32)cc1	-5.7%

More structures follow:
SMILES	VDR inh
COc1ccc(Cl)cc1C(=O)Nc1ccc2nc3n(c(=O)c2c1)CCCC3	11.4%
O=C(Nc1cccnc1)c1cccc(-c2cc3ccccc3oc2=O)c1	-1.6%
Cc1ccc2oc(C(=O)Nc3ccc(S(=O)(=O)Nc4ncccn4)cc3)cc(=O)c2c1	12.1%
Cc1cccc(C(=O)NCCCn2ccnc2)c1C	-6.0%
CC1(C)OC(=O)C(=CNc2ccc(F)cc2)C(=O)O1	-18.3%
COC(=O)CSc1nc2ncccc2[nH]1	3.1%
COC(=O)c1nnn(-c2cccc(Cl)c2)c1C(=O)OC	6.1%
COC(=O)Cn1c(CN2CCc3ccccc3C2)nc2c1c(=O)n(C)c(=O)n2C	-10.8%
CCC1(C(=O)O)NC(c2cccc(OC)c2O)C2C(=O)N(c3ccccc3)C(=O)C21 (centres undefined)	-8.6%
OC(COc1ccc(C2C=CCC2)cc1)CN1CCCCC1 (centres undefined)	7.5%
O=C(O)CC1(CC(=O)NCc2ccc(-c3cccs3)cc2)CCCCC1	-0.1%
COc1ccc(N=C2CCS(=O)(=O)c3sccc32)cc1	-2.3%
O=C(c1ccc2c(Cl)c3c(nc2c1)CCCC3)N1CCN(c2ccccc2)CC1	3.7%
COc1ccc(C(=O)Nc2ccccc2C(=O)NCCN2CCOCC2)cc1	-5.5%
COc1ccc(-c2cc(C(F)(F)F)c(C#N)c(SCC(=O)O)n2)cc1	-7.3%
O=[N+]([O-])c1ccc(CP(=O)(c2ccccc2)c2ccccc2)cc1	9.0%
Cc1ccc(C)c(OCCCC(=O)NC2CCCCC2)c1	8.2%
CCS(=O)(=O)c1ccc(O)c(NC(=O)COc2ccccc2)c1	-2.3%
CCN(CC(=O)Nc1ccccc1C(F)(F)F)C(=O)/C=C/c1ccc(Cl)c([N+](=O)[O-])c1	-5.4%

Assay outcomes: PubChem BioAssay, National Center for Advancing Translational Sciences (NCATS)
